# Calb biofilm kill = mixtures killing C. albicans biofilm. C. albicans biofilm persisters + clotrimazole, fluorescence viability; primary screen in compound mixtures of four per well. inhibition, % at 7.6 µM. 0.02% of 120,000 active. AID 1242;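 active = inhibition above 30.3% in the primary screen of four-compound pools, then above 30% when the compound was retested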;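 also: compounds exposed to preformed 24 h biofilms for 48 h; the number belongs to the whole pool; some results filed as inactive read as strong as hits; inactives centre near 12; 0% = biofilm with clotrimazole alone and 100% = kill control; retested singly at about 60 µM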
#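 Incubation: 24 h biofilm formation, then 48 h compound exposure, 37 °C | Material: C. albicans biofilms | Buffer or medium: RPMI/MOPS medium, pH 7.0 | Measured by: 2-h Alamar Blue fluorescence, 535/590 nm excitation/emission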
# An asterisk follows results filed as active. This is a subset (hit frequency here may not be typical).
SMILES,Calb biofilm kill
CC(C)NCCOCCOc1ccc(Cl)cc1Br,-3.0
Cc1ccoc1C(=O)N1CCCC(CCC(=O)N2CCN(c3ccccn3)CC2)C1 (centres undefined),10.4
COc1cc(OC)c(C(=O)NCCCN2CCOCC2)cc1OC,4.8
O=C(Cn1nnc(-c2cccs2)n1)NNC(=O)c1ccccc1Cl,27.8
O=C(NC(=S)NCc1cccnc1)c1ccc([N+](=O)[O-])cc1,15.1
COc1ccc(/C=C/C(=O)c2cc(Br)ccc(=O)c2O)cc1,10.3
N#C/C(=C\c1c(N2CCCCC2)nc2ccccn2c1=O)S(=O)(=O)c1ccccc1,16.1
O=C(O)CSCC(=O)N1CCN(S(=O)(=O)c2ccccc2)CC1,-11.8
O=S(=O)(c1ccc(F)cc1)N1CCN(C(=S)NCc2ccco2)CC1,12.4
O=C(CSc1nc2ccccc2[nH]1)NCC1CCCO1 (centres undefined),17.1

# By substructure: the compounds so far containing an aryl methoxy group (two)
SMILES,Calb biofilm kill
COc1cc(OC)c(C(=O)NCCCN2CCOCC2)cc1OC,4.8
COc1ccc(/C=C/C(=O)c2cc(Br)ccc(=O)c2O)cc1,10.3

# Following part.
SMILES,Calb biofilm kill
CCOC(=O)/C(=C/Nc1ccc(F)cc1)[N+](=O)[O-],18.9
Nc1nccnc1C(=O)N/N=C/c1ccco1,7.6
COc1cc(/C=C(/C#N)c2nc3ccccc3c(=O)[nH]2)ccc1O,15.3
O=C(CSc1ccc2ccccc2n1)Nc1nsc(-c2ccc(Cl)cc2)n1,21.4
O=C(O)C1c2ccccc2C(=O)N(Cc2ccc(F)cc2)C1c1ccncc1 (centres undefined),14.9
NC(=O)c1cc(N)ccc1N1CCCCC1,15.4
Cc1cccc(CSc2nc3c(c(=O)n2C)SCC3)c1,11.3
COC(=O)N/N=C/c1c(C)cc(C)cc1C,16.0
O=C(/C=C/c1ccccc1)NC1CCS(=O)(=O)C1 (centres undefined),20.6
O=C(Nc1ccc(-c2ccc3nncn3n2)cc1)C1CCCCC1,10.8

# 4 of these compounds in another layout:
CCOC(=O)/C(=C/Nc1ccc(F)cc1)[N+](=O)[O-]
- Calb biofilm kill: 18.9

Nc1nccnc1C(=O)N/N=C/c1ccco1
- Calb biofilm kill: 7.6

COc1cc(/C=C(/C#N)c2nc3ccccc3c(=O)[nH]2)ccc1O
- Calb biofilm kill: 15.3

O=C(CSc1ccc2ccccc2n1)Nc1nsc(-c2ccc(Cl)cc2)n1
- Calb biofilm kill: 21.4

# The results go on:
SMILES,Calb biofilm kill
CC(=O)[C@@H]1[C@@H](C(=O)c2ccc(C)cc2)[C@]2(C(=O)Nc3ccccc32)[C@H]2C=Cc3cc(F)ccc3N12,13.4
Cc1oc(CN2CCOCC2)cc1C(=O)O,11.3
O=C(Nc1ccccc1C(=O)OCC(=O)c1c[nH]c2ccccc12)c1ccco1,13.7
COc1cccc(CN2CCN(C(=O)c3ccc(-c4ccccc4)cc3)CC2)c1,9.2
COc1ccc(N2C(=O)CC(Sc3nnc(-c4ccccc4F)n3C)C2=O)cc1 (centres undefined),19.3
CCCCn1c(C)csc1=Nc1cccnc1,4.0
Cc1ccc(C2C(C#N)=C(N)Oc3n[nH]c(-c4cccs4)c32)cc1 (centres undefined),6.5
CC(=O)Oc1ccc(C(=O)[C@H]2[C@H]3C(=O)N(c4ccc5ccccc5c4)C(=O)[C@H]3[C@@H]3C=CC=NN32)cc1,16.7
O=C1CCCN2N=C(SCC(=O)Nc3nc4ccccc4s3)SC2=N1,18.1
CCOC(=O)Cn1cnc2sc(C(=O)OC)c(C)c2c1=O,-11.9
COC(=O)C1=C(C)NC(C)=C(C(=O)OC)C1C(=O)OC(C)C(=O)c1ccccc1 (centres undefined),9.6
Cc1c(C#N)c(O)n(CCO)c(=O)c1N=Nc1ccccc1,23.0
O=c1cc(O)nc[nH]1,9.2
O=C(O)CC12C[C@H]3C[C@@H](C1)CC(n1ncc(N4CCN(c5ccccc5)CC4)c(Cl)c1=O)(C3)C2,8.1
O=C(COc1ccccc1-c1ccccc1)NCc1ccco1,3.5
O=C(Oc1ccc(OC(=O)N2CCCCC2)cc1)N1CCCCC1,3.3
CC1CCc2nc3ccc(S(=O)(=O)N4CCC(C(=O)N5CCCCCC5)CC4)cc3c(C(=O)O)c2C1 (centres undefined),19.3
CCN(CC)S(=O)(=O)c1ccc(/C=C/C(=O)Nc2cccc(F)c2)cc1,12.4
CCOCN(C(=O)Cn1cnc2ccccc21)c1c(C)cccc1CC,19.8
COc1ccc(CNc2nc3ccccc3n2C)c(O)c1,18.6
CCN(Cc1ccccc1)S(=O)(=O)c1cc(C(=O)NC(C)C2CC3CCC2C3)ccc1OC (centres undefined),18.2
Cc1ccc(OCC(=O)NC(=S)Nc2ccc(Br)cn2)cc1C,18.2
Cc1cc(F)ccc1N1CCC(N2CCN(CCC(C)C)C(CCO)C2)CC1 (centres undefined),25.6
Cc1c(O)nc(SCC(=O)Nc2ccc3c4c(cccc24)CC3)n(-c2ccccc2)c1=O,13.1
O=C1c2cccc(O)c2C(=O)c2c(O)cccc21,17.6
COc1cccc(OCC(Cn2c(C)nc3ccccc32)OC(C)=O)c1 (centres undefined),14.8
FC(F)(F)c1cnc2c(-c3ccccc3)n[nH]c2c1,1.7
CCN(c1ccccc1)S(=O)(=O)c1ccc(Cl)c(C(=O)NCC2CCCO2)c1 (centres undefined),14.2
COc1cc2c(cc1NC(=S)NC(=O)/C=C/c1ccc(OC)c(OC)c1)oc1ccccc12,6.0
OC1CCN(c2cc(-c3ccccc3)nc3cc(-c4ccc(F)cc4)nn23)CC1,0.0

# Random excerpt: three compounds from above
SMILES,Calb biofilm kill
O=C(Cn1nnc(-c2cccs2)n1)NNC(=O)c1ccccc1Cl,27.8
Nc1nccnc1C(=O)N/N=C/c1ccco1,7.6
Cc1oc(CN2CCOCC2)cc1C(=O)O,11.3

# The results go on.
SMILES,Calb biofilm kill
Cc1ccc(C)c(NCCC#N)c1,7.6
CC(C)N(C(=O)COC(=O)c1ccc(Cl)c(S(N)(=O)=O)c1)C(C)C,8.1
Cc1ccc(Nc2nc(N)c([N+](=O)[O-])c(N3CCC(C)CC3)n2)cc1C,18.1
CC1=CC(C)C(C[N+]2(C)CCCCC2)C(C)C1 (centres undefined),24.3
CNC(=O)C(NC(=O)CNC(=O)c1ccc(Cl)cc1)C(C)(C)C (centres undefined),13.5
Cc1ccc2nc(-c3ccc(NC(=O)COC(=O)c4ccc([N+](=O)[O-])o4)cc3)sc2c1,12.4
O=C(N/N=C1\CCCc2c1[nH]c1ccc([N+](=O)[O-])cc21)c1ccncc1,25.9
CCCCN(CCCC)CCNC(=O)CSCc1ccc(C)cc1,14.7
COC(=O)N/N=C(\C)c1ccccc1OC(F)F,9.6
Cc1cc2ncn(/N=C/c3ccc([N+](=O)[O-])s3)c2cc1C,5.9
Cc1ccc(S(=O)(=O)N2CCCCC2)cc1NC(=O)COC(=O)c1ccc(O)cc1,13.0
O=C(NC1CC1)C1CCN(S(=O)(=O)c2cc(Cl)ccc2Cl)CC1,-3.9
OCCSc1nc(-c2ccccc2)nc2c1CCC2,9.0
COc1cc(C(=O)NCC(c2ccccc2)N(C)C)ccc1OCC(=O)N1CCOCC1 (centres undefined),38.0
COc1ccccc1C(=O)N/N=C(\C)c1ccc(NC(=O)C2CC2)cc1,4.6
CCOC(=O)c1ccc(S(=O)(=O)N2CCN(C3CCCC3)CC2)cc1,12.3
O=C(O)CNc1ccc(S(=O)(=O)C(F)(F)F)cc1[N+](=O)[O-],2.6
Cc1nc2c(o1)CCc1ccccc1C2N1CCN(C)CC1 (centres undefined),6.0
O=C(NC1CC1)C1=C[C@@H](c2ccccc2)C[C@@H](OCCCCO)O1,17.3
CCOC(=O)c1c(NC(=O)C(=O)N/N=C(\C)c2ccc(OC)cc2)sc2c1CCCCC2,19.9
Cn1c(SCC(=O)NNC(=O)Cc2ccccc2)nc2ccccc2c1=O,10.3
CC1CC(C)(C)CC2(C1)NC(=O)N(CC(=O)NCCc1ccc3c(c1)OCCO3)C2=O (centres undefined),14.6
COc1ccc(NC(=S)N(CCCN2CCCC(C)C2)Cc2cccs2)cc1 (centres undefined),19.4
CCS(=O)(=O)NCC(c1ccco1)N1CCN(c2ccccc2)CC1 (centres undefined),3.6
CC(C)CC(CC(C)C)=NNC(=O)c1ccc2c(c1)OCO2,3.7
Fc1cccc2sc(Nc3nc4ccccc4s3)nc12,15.5
O=C(O)c1ccccc1NC(=S)NC(=O)c1sc2ccccc2c1Cl,5.5
Cc1ccc(C(=O)N/C(=C\C=C\c2ccccc2)C(=O)NCc2ccco2)cc1,16.3
CCC1CCCCN1C(=O)CCc1nnc(Cc2c[nH]c3ccccc23)o1 (centres undefined),5.5
CCC(C)(C)NC(=O)C(c1ccc(C)o1)N(C(=O)c1csnn1)c1cccc(F)c1 (centres undefined),8.4
CCC(C)NC(=O)CN(c1cc(C)cc(C)c1)S(=O)(=O)c1c(C)[nH]c(=O)[nH]c1=O (centres undefined),12.3
COc1ccc(C(=O)OCC(=O)NC(=O)CCSc2ccccc2)cc1,1.2
NC(=O)[C@H]1CC2(CC(c3cccc(NC(=O)COc4ccc(Cl)cc4)c3)=NO2)CN1C(=O)C(c1ccccc1)c1ccccc1 (some centres undefined),17.9
CCOc1ccccc1-n1cnc(C#N)c1N,12.6
CC(C)(C)NCCCOc1ccc(Cl)cc1C(C)(C)C,6.1
CCOC(=O)C(C)Sc1nc2c([nH]c3ccccc32)c(=O)n1C (centres undefined),14.6
Cc1c(Cl)cccc1NC(=S)NCCCN(C)C,7.0
O=C1C2C3c4ccccc4C(Br)(c4ccccc43)C2C(=O)N1c1ccccc1O (centres undefined),15.4
O=C(Nc1ccc(S(=O)(=O)Nc2ncccn2)cc1)c1ccc(N2CCCC2=O)cc1,6.0
Cc1ccc(OCC(=O)N/N=C\c2c(C)[nH]n(-c3ccccc3)c2=O)c([N+](=O)[O-])c1,9.1
O=C(O)Cc1n[nH]c(=O)c2ccccc12,12.2
Cn1c(Cc2ccccc2)nnc1SCc1nc2ccccc2c(=O)[nH]1,17.1
N#CC(c1ccc(Cl)cc1)N1CCOCC1 (centres undefined),14.8
O=C(CC12CC3CC(CC(C3)C1)C2)N1CCN(S(=O)(=O)c2cccs2)CC1,18.1
CC(C)(C)NC(=O)C(=O)NNC(=O)c1ccc(C(C)(C)C)cc1,23.2
CCCn1c(=O)c2c(C(F)(F)F)cc(-c3cccs3)nc2n(CCC)c1=O,16.2
CCCC1=NN(c2ccc([N+](=O)[O-])cc2)C(=O)/C1=C\N(C)C,7.5
CC(C)(C)c1nc[nH]c(=O)c1Br,15.8
CCc1ccc(N2C(=O)CC(Cn3nc(C)cc3C)C2=O)cc1 (centres undefined),16.0
CC(C)CNC(=O)c1cc([N+](=O)[O-])ccc1N1CCOCC1,16.6

# The results go on:
SMILES,Calb biofilm kill
CCc1ccc(-n2c(SCc3cc(=O)n4cc(Br)ccc4n3)nc3[nH]ncc3c2=O)cc1,4.7
CCN(CC)C(=O)/C=C/c1ccc(OC)c(S(=O)(=O)N2CCCCC2)c1,17.6
CCOc1ccc(CNc2cccc(SC)c2)cc1,0.7
CCOC(=O)c1c[nH]c2c(C(F)(F)F)cccc2c1=O,24.9
CC1=CCC2COC(c3ccc[n+](Cc4ccccc4)c3)C1C2 (centres undefined),11.8
COc1cccc(-n2ccnc2SCC(=O)Nc2cc(C)on2)c1,7.9
CCCCn1c(N)c(S(=O)(=O)c2ccc(C)cc2)c2nc3ccccc3nc21,5.4
N#C/C(=C\c1ccc[nH]1)C(=O)NCC1CCCO1 (centres undefined),14.4
Cc1ccc(C)c(NC(=O)COC(=O)CC2c3ccccc3CCN2S(=O)(=O)c2ccc(F)cc2)c1 (centres undefined),16.3
Nc1ccc(-n2nnnc2CN2CCOCC2)cc1,19.1
COc1cccc(-n2nnc(S(=O)(=O)c3ccc(C)cc3)c2N)c1,10.0
Cc1ccccc1N=C1SCC(=O)N1Cc1ccccc1,15.6
O=C(/C=C/c1cn(CC(O)CN2CCCCC2)c2ccccc12)c1cccs1 (centres undefined),9.5
CC(/C=C1\SC(=S)N(NC(=O)c2cccc(O)c2)C1=O)=C\c1ccccc1,9.8
Cc1nc2ccc(C(=O)N3c4ccccc4CC3C)cc2s1 (centres undefined),15.0
CC(=O)c1c(C)[nH]c(C(=O)Nc2cccc(S(=O)(=O)N(C)c3ccccc3)c2)c1C,7.8
CC(C)C(=O)NC(Nc1ccc(S(N)(=O)=O)cc1)C(Cl)(Cl)Cl (centres undefined),1.1
CCN(CC)C(=O)Cn1cc(SCC(=O)NC)c2ccccc21,17.0
C=CCC1(CC=C)CCCN1C(=O)CC1C(=O)NCCN1Cc1cc(OC)cc(OC)c1 (centres undefined),18.4
CCOC(=O)C1CCN(C(=O)c2cc3ccccc3oc2=O)CC1,16.6
CC1(C)Cc2c(sc(NC(=O)/C=C/C(=O)O)c2C#N)CO1,15.2
O=C(COC(=O)c1cccc([N+](=O)[O-])c1)NCC1CCCO1 (centres undefined),11.3
CC1=Nc2ccc3ccccc3c2C1(C)C,10.8
CC(NC(=O)Nc1ccc([N+](=O)[O-])cc1)C(c1ccccc1)N1CCOCC1 (centres undefined),4.2
CCCCCC(=O)NCc1c(C(F)(F)F)nn(C)c1N1CCOCC1,1.4
CCc1nnc(NC(=O)C2CCC(CNc3c(N4CCCCC4)c(=O)c3=O)CC2)s1 (centres undefined),5.4
NC(=O)[C@H]1CC2(CC(c3cccc(NC(=O)[C@H]4CCC(=O)N4)c3)=NO2)CN1C(=O)c1ccccc1C(=O)c1ccccc1 (some centres undefined),11.7
CCOc1ccc(NC(=O)CN2C(=O)/C(=C3\SC(=S)N(C4CCS(=O)(=O)C4)C3=O)c3ccccc32)cc1 (centres undefined),18.4
